TRPML1 agonist = activates the human TRPML1 channel | Q9GZU1 | TRPML1-expressing cells, Ca2+ dye fluorescence, FDSS; host cell line not named in the record; reference of the full effect not given here | activation, % (no concentration beside the values) | 410,000 compounds, 0.12% hits; in the data active = activation above about 50%; inconclusive = about 30% to 50%; inactive = below about 30%; also: 0% is about no effect; the text of the record puts the active cut at 80%
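Tet-induced TRPML1-DL cells, 1,500 per well, cultured overnight, were loaded with a no-wash Ca2+ dye for 45–90 min. Calcium fluorescence was recorded on the FDSS for 110 s after compound addition, before the EC80 agonist (4 uM 54-4) was added.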
Six1-Eya2 inh = inhibitors of human Six1/Eya2 interaction. AlphaScreen GST-Six1/His-Eya2 binding, biochemical; stronger effect = lower value; control for the full effect not named in the record. AID 651725. activity change, % (concentration not given with the values). 360,000 compounds, 0.56% hits. Q15475+O00167; in the data active = activity change below about -65%; inconclusive = about -30% to -65%; inactive = above about -30%; also: % is scaled to controls: 0 for no effect and ±100 for the full control effect
Target sequence (O00167 whole entry, looked up): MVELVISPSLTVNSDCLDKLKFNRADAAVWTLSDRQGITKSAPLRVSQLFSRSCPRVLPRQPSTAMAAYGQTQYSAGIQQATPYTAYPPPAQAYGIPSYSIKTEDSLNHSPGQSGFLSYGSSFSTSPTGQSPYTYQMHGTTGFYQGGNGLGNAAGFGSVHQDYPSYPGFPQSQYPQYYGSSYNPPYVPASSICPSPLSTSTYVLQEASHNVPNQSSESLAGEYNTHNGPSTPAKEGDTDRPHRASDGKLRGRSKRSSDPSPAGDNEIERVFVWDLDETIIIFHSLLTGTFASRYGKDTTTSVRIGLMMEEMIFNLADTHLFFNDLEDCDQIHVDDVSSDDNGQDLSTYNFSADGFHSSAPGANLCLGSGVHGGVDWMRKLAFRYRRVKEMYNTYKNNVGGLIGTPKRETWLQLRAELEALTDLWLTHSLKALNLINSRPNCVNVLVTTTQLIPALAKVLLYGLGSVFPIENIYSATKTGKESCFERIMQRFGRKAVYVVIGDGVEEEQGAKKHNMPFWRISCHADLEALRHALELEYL
Target sequence (Q15475 whole entry, looked up): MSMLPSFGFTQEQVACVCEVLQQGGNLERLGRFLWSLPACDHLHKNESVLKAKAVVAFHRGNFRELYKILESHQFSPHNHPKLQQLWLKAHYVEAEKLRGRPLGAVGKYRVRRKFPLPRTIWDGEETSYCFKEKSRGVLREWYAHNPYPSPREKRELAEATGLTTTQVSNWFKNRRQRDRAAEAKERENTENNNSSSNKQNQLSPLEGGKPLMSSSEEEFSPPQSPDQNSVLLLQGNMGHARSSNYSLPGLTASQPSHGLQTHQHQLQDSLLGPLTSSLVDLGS
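Six1/Eya2 binding was read as AlphaScreen signal after compounds were pinned into GST-Six1 plus His-tagged Eya2 (5X stock 250/500 nM) in pH 8.0 Tris/NaCl/TCEP buffer, beads added, then incubated 1 h, 37 C, dark.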
D2 ag = human D2 receptor agonism in beta-arrestin assay | 360,000 compounds, 0.084% hits | P14416 | DiscoveRx PathHunter D2 beta-arrestin, luminescence, 90 min; 100% = 57 uM dopamine signal | activation, % (test concentration not listed); in the data active = activation above about 40%; inconclusive = about 15% to 40%; inactive = below about 15%; also: compound concentration not given in the record; the text of the record calls up to 30% inactive
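Agonist mode: compounds alone added to overnight-plated D2 PathHunter cells for 90 min at 37 C, with 57 uM final dopamine (EC100) defining full response. Beta-arrestin recruitment detected by chemiluminescent reagent, read after 1 h at ambient temperature.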
TRPML1 inh = inhibitors of human TRPML1 channel; activity change, negative = inhibition, % (concentration not given with the values); 390,000 compounds, 0.02% hits; Q9GZU1; TRPML1-inducible cells, Ca2+ dye fluorescence, FDSS; stronger effect = lower value; inhibition of EC80 agonist-evoked calcium signal; in the data active means activity change below about -50%; inconclusive means about -30% to -50%; inactive means above about -30%;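 also: stimulus is agonist 54-4 at its EC80 concentration; % is scaled to controls: 0 for no effect and ±100 for the full control effect; the text of the record puts the active cut at -80%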
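TRPML1-DL cells, Tet-induced overnight (~16 h, 37 °C) at 1,500 cells/well, were loaded with Ca8 no-wash dye plus quencher for 45-90 min at room temperature. Compounds were pinned during FDSS kinetic reading; agonist 54-4 at EC80 (4 uM final) then added.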
CtBP-E1A blk = inhibitors of CtBP/E1A interaction; 340,000 compounds, 0.49% hits; AlphaScreen GST-E1A/His-CtBP binding, 1536-well; stronger effect = lower value; control for the full effect not named in the record; activity change, % (test concentration not listed); in the data active means activity change below about -65%; inconclusive means about -30% to -65%; inactive means above about -30%; also: % is scaled to controls: 0 for no effect and ±100 for the full control effect
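In 5 uL wells, 23 nL compound meets equimolar GST-E1A and His-CtBP (5X stock 125 nM each) for 2 h, 37 °C. Beads (5X, 50 ug/mL) then 1 h, 37 °C, dark.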
PINK1 expr mod = changes PINK1 expression; PINK1 immunofluorescence, high-content cytometry, 24 h; Potency, µM (doses to about 76.6 µM), for inactives: top-dose activation (PINK1 increase), most hits filed as activators; 410,000 compounds, 0.2% hits; AID 624263; active = well fitted activation curve with a large enough effect; inconclusive = small, poorly fitted or top-dose-only effect; inactive = flat fitted curve, though single readings scatter; cell line not stated here;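 also: potency is read from the fitted curve at half-maximal effect; % of control where 0% means no effect; nearly all actives have a fitted effect of over 65% in size; a mitochondrial uncoupler was the plate control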
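Cells are seeded, rested 12 hours, then given compound at five concentrations or DMSO for 24 hours. After fixation, blocking and antibody staining, PINK1 amount and mitochondrial localization are scored; CCCP serves as control.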
* marks the source's active call; other numbers are inactive results; u = inconclusive; x = not tested or not shown; & = joins results of further samples; [ ] = dose if it differs, or a comment. No enrichment for hits. Share with any hit: about 1%.

smiles	TRPML1 agonist	Six1-Eya2 inh	D2 ag	TRPML1 inh	CtBP-E1A blk	PINK1 expr mod
CC(CN1CCCCC1)C(=O)NNC(=O)C12CC3CC(CC(C3)C1)C2 (centres undefined)	-0.5	-2	-3.6	17	0	-0.5%
COc1cc2c(cc1NC(=O)CCCCCN1C(=O)CCC1=O)oc1ccccc12	2.2	-5	1.9	11	-1	0.3%[38.3 µM]
O=C(O)COc1ccc(NC(=O)C(c2ccccc2)c2ccccc2)cc1	-0.7	4	-2.4	-17	x	-0.5%
COC(=O)c1c(NC(=O)C(C)C)sc2c1CCN(Cc1ccccc1)C2	1.1	-6	-4.4	4	0	3.1%
O=C1Nc2ccccc2/C1=C/c1cccnc1	1.4	-3	-5.6	-19	-12	2.7%
Cc1cc(NC(=O)C(=O)c2c(C)[nH]c3ccccc23)no1	-0.5	-18	-2.1	13	-14	1.8%
CC(C)N(Cc1ccccc1)C(=O)CN1C(=O)CSc2ccc(S(=O)(=O)N3CCCC3)cc21	0.9	x	x	-17	x	-0.1%
Cc1cccc(NC(=O)c2nc[nH]c2C(=O)N[C@@H](CCCCNC(=O)OC(C)(C)C)C(=O)OC(C)(C)C)c1	0.7	-17	-1.8	1	-7	4.6%
CCOCCCNS(=O)(=O)c1ccc(NC(=O)N2c3ccccc3Sc3ccccc32)cc1	4.0	-8	5.6	4	-3	-3.2%
CC(=O)Nc1ccc(S(=O)(=O)NCc2ccc(C(=O)NC(C)c3ccccc3)cc2)cc1 (centres undefined)	0.5	7	0.7	-11	7	x
CSc1ccccc1C(=O)N1CCCC(CNC(=O)c2ccc(F)cc2)C1 (centres undefined)	-0.8	1	-3.8	14	2	-1.5%
CCOc1ccc(NC(=O)CC2C(=O)NCCN2C(=O)c2ccc(Cl)cc2)cc1 (centres undefined)	-0.3	3	-1.7	-1	-2	2.7%
C=CCN1C(=O)/C(=C2/Sc3ccc(OC)cc3N2C)SC1=NCc1ccccc1	-0.6	-4	-4.4	-6	8	u
CCC1=NN(C(=O)c2cccc([N+](=O)[O-])c2)C(O)(c2ccc(C)cc2)C1 (centres undefined)	2.1	-13	-8.4	-11	-4	1.1%
Oc1ccccc1C=Nc1ccccc1-c1nc2ccccc2[nH]1	-1.1	-9	-1.6	1	-7	4.0%

Record cards, as listed above. Order of values: TRPML1 agonist, Six1-Eya2 inh, D2 ag, TRPML1 inh, CtBP-E1A blk, PINK1 expr mod
Shown for COc1cc2c(cc1NC(=O)CCCCCN1C(=O)CCC1=O)oc1ccccc12 → 2.2, -5, 1.9, 11, -1, 0.3%[38.3 µM]
Shown for O=C1Nc2ccccc2/C1=C/c1cccnc1 → 1.4, -3, -5.6, -19, -12, 2.7%

The results go on.
smiles	TRPML1 agonist	Six1-Eya2 inh	D2 ag	TRPML1 inh	CtBP-E1A blk	PINK1 expr mod
Cn1c(/C=C/c2ccc(Cl)cc2)nc2ccccc2c1=O	1.2	-11	-1.0	4	-5	3.6%
O=C(CCc1ccccc1)N1CCc2c([nH]c3ccccc23)C1c1ccc(F)cc1 (centres undefined)	2.0	x	x	-1	x	1.1%
Cc1cccc(C(=O)Nc2ccc(NC(=O)c3cccc(C)c3)cc2)c1	-0.9	12	-2.8	-19	-25	2.4%
CCOc1ccc(NC(=O)Cn2nnc(-c3ccccc3NC(=O)CC)n2)cc1	0.9	-4	1.0	2	-2	1.8%
COc1cccc(-n2nnc3c(=O)n(Cc4ccc(C)cc4)cnc32)c1	2.6	-16	-1.8	-1	-17	5.6%[38.3 µM]
CCOc1ccc(-n2nnnc2SCC(=O)NC2CCCC2)cc1	-0.2	5	-2.5	-6	-2	1.1%
COc1ccc(C2C3=C(CCCC3=O)N(CC(=O)O)C3=C2C(=O)CCC3)cc1Br	0.0	u	9.3	5	-4	1.3%
CCOC(=O)C1CCCN(C(=O)CCNS(=O)(=O)c2cc(Br)cnc2N)C1 (centres undefined)	-0.9	6	0.7	3	1	0.7%
O=C(c1ccco1)N1c2ccccc2Sc2ccccc21	0.5	-3	-3.9	-5	-1	0.4%
O=C(NCc1ccccc1)c1cc(-c2ccncc2)nc2ccc(S(=O)(=O)N3CCOCC3)cc12	-0.3	-1	-1.3	-10	-1	2.5%
CCCNC(=O)CN(C1CCCCC1)S(C)(=O)=O	-0.6	-4	-3.8	0	-13	-1.9%
Nc1ccc(Nc2ccncc2)cc1	0.3	11	-0.3	-8	4	1.2%
CCCCCCCCN1C(=O)[C@H](CC(=O)NCC23CC4CC(CC(C4)C2)C3)C[C@@]2(C(=O)OCC)CCCC=C12	-0.2	1	x	x	1	u
O=C(CCCC(=O)NCc1ccccc1)NCc1ccccc1	-0.6	4	-3.0	-18	3	1.1%
NC(=O)[C@H]1CC2(CC(c3cccc(NC(=O)c4ccccc4)c3)=NO2)CN1C(=O)[C@H]1CCC(=O)N1 (some centres undefined)	-0.3	26	1.2	1	36	-0.8%
O=C(NCc1n[nH]c(=S)n1-c1ccccc1Cl)c1ccc(S(=O)(=O)N2CCCCC2)cc1	-0.6	6	0.2	5	13	-1.5%
CCc1ccc(N(CC)C(=O)c2ccc3c(=O)n4c(nc3c2)CCCCC4)cc1	1.8	x	x	30	x	0.6%
CC(C)C(C(=O)OCC(=O)c1cccc([N+](=O)[O-])c1)N1C(=O)[C@@H]2[C@H]3CC[C@H](C3)[C@@H]2C1=O (some centres undefined)	-0.4	-8	-8.4	5	4	1.1%
COc1cc(-c2ccccc2)[nH]c(=S)n1	0.4	4	-6.8	4	0	0.0%
CCOC(=O)C1CCN(C(=O)COC(=O)c2ccccc2OCC)CC1	0.3	11	1.2	1	-3	-0.3%
Cc1ccccc1CNC(=O)C1CCN(c2nnc(C)c3c(C)n(-c4ccccc4)nc23)CC1	0.2	x	x	22	x	-0.6%
CC1(C(=O)Nc2ccc3c(c2)OCO3)CCN1C(=O)Cc1cccc2ccccc12 (centres undefined)	0.5	-11	-2.9	20	-7	-0.2%
COc1ccc(NS(=O)(=O)NC(=O)c2c[nH]c3ccccc23)cc1	2.8	1	3.2	-11	x	0.6%
CCCCCCC(C)n1[nH]c(=O)c2c(C)cc(C)nc21 (centres undefined)	2.0	4	1.8	12	-13	6.0%
Cc1ccc(Cl)cc1NC(=S)N1CCCCCC1	0.3	0	3.6	8	-2	-0.5%
CC(=O)Nc1cccc(NC(=O)c2ccccc2OCc2c(C)noc2C)c1	-0.1	0	-2.6	2	10	0.2%
Cn1cc(CN(CCCN2CCOCC2)C(=S)Nc2cccc(Cl)c2)c2ccccc21	1.1	-12	-6.7	57	-14	-1.2%
CCN(CC)CCNc1nc(-c2ccco2)c2c(c1C#N)CC(C)(C)OC2	-1.0	-1	-3.4	8	-1	-4.6%
O=C(O)c1ccccc1C(=O)Nc1c(-c2ccccc2)nc2ccccn12	-0.4	2	-3.4	-7	x	1.5%
CC(Sc1nnnn1C)C(=O)NC1CCCc2ccccc21 (centres undefined)	-0.8	2	9.0	16	2	-0.2%
CCc1ccccc1NC(=O)CN1CCN(C(=O)c2cccc(-n3cnnn3)c2)CC1	-0.4	11	-1.7	9	x	1.7%
COc1ccc(NC(=O)Nc2c[nH]c(=O)[nH]c2=O)cc1OC	0.0	-8	4.0	-1	-1	-1.3%
COc1ccc(Cc2nnc(Nc3ccc4c(c3)OCCO4)[nH]c2=O)cc1	2.3	-6	1.2	-10	7	0.6%
Cc1ccc(CNC(=O)CSc2nc3ccsc3c(=O)n2Cc2ccc(C(=O)O)cc2)cc1	0.0	5	-8.1	27	-4	-0.3%
Cc1cccc(-c2noc(CN(C(=O)c3ccc4c(c3)OCO4)C(C)C)n2)c1	0.7	3	-1.2	-17	8	-1.4%
CCOC(=O)c1c(C)[nH]c(CCC(=O)NCCCN2CCN(c3ccccc3F)CC2)c1C	1.0	x	x	-12	x	-0.1%
COc1ccc(-c2noc(C3CCCN(C(=O)Nc4ccccc4)C3)n2)cc1 (centres undefined)	3.6	-4	5.4	0	5	2.0%
O=[N+]([O-])c1cccc(N/N=C/c2cc([N+](=O)[O-])ccc2O)c1	0.3	-17	-6.8	-1	-10	3.8%
Cc1cc(N2CCN(C)CC2)n2nc(-c3ccc(Cl)cc3)nc2n1	-0.1	-1	-1.3	0	x	2.3%
O=C(CSc1nnc(C2CCCCC2)n1-c1ccccc1)NCc1ccco1	0.3	-1	1.2	0	-7	x
O=C(COC(=O)C1COc2ccccc2O1)NC1CCS(=O)(=O)C1 (centres undefined)	0.6	2	-0.8	-11	3	-1.4%
O=C(Nc1ccc(S(=O)(=O)N2CCCC2)cc1)c1ccc([N+](=O)[O-])cc1	-1.1	0	12	0	-1	6.1%
O=C(COc1ccc(-n2cnnn2)cc1)N1CCN(c2ccc(F)cc2)CC1	2.4	-1	-2.1	-10	-20	-0.5%
Cc1ccc(S(=O)CCNC(=O)Cc2ccccc2)cc1 (centres undefined)	0.6	-2	13	-6	7	-0.5%
COc1ccc(/C=N/Nc2cc(C)nc(N3CCOCC3)n2)cc1	2.6	-2	-11	18	1	4.0%
Cc1noc(C)c1C(=O)Nc1cccc2ncccc12	0.3	-4	-3.2	1	0	1.0%
Cc1onc(-c2ccccc2Cl)c1C(=O)OCC(=O)Nc1cccc(S(=O)(=O)N2CCOCC2)c1	0.8	8	0.1	0	-4	0.2%
COc1ccc(OC)c(CNC(=O)CCCn2ccc3cc(S(=O)(=O)N4CCCC4)ccc32)c1	1.4&1.0	-3	0.4	-8&7	-5	-1.4%&0.2%
C[C@@H]1CN([C@@H](C)CO)S(=O)(=O)c2ccc(Br)cc2O[C@H]1CN(C)C(=O)C1CCC1	0.5	5	-6.4	-20	-4	2.1%
O=C(CSc1nnc(-c2ccccc2Cl)o1)Oc1ccc(Br)cc1	-0.8	-6	-2.7	5	-2	-0.9%

Screening data (PubChem BioAssay)
